# MARV entry inh – qHTS for inhibitors of binding or entry into cells for Marburg Virus. Marburg virus pseudotyped entry inhibition, cell reporter; control for the full effect not named in the record; about a third of the inactives were read at about 46 µM. Potency, µM (titrated, usually from 37.8 µM), for the others: at the top dose activity change, negative = inhibition, most hits filed as inhibitors. hit rate 1.8% among 300,000; active = well fitted inhibition curve with a large enough effect; inconclusive = small, poorly fitted or top-dose-only effect, or effect the other way; inactive = flat fitted curve, though single readings scatter; tested in HEK293 cells; about a fifth of its hits are not listed in these tables; also: % is scaled to controls: 0 for no effect and ±100 for the full control effect; luciferase read-out
# Cruzain inh noDet – qHTS Assay for Promiscuous and Specific Inhibitors of Cruzain (without detergent); Cruzipain (Trypanosoma cruzi), P25779; purified cruzain, Z-FR-AMC fluorescence, no detergent; Potency, µM, for the others: max response, negative = inhibition, usual class: inhibitors; hit rate 2.3% among 200,000; active = well fitted curve in the direction sought with a large enough effect; inconclusive = small, poorly fitted or top-dose-only effect, or another doubt; inactive = no such curve, though single readings can be large; an effect the other way counts as inactive or inconclusive;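 also: plate controls were enzyme without inhibitor for no effect and buffer without enzyme for full effect; nearly all actives have a fitted effect of over 40% in size; top concentration of the series not given in the record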
# Target sequence (P25779 123-467 limits assumed): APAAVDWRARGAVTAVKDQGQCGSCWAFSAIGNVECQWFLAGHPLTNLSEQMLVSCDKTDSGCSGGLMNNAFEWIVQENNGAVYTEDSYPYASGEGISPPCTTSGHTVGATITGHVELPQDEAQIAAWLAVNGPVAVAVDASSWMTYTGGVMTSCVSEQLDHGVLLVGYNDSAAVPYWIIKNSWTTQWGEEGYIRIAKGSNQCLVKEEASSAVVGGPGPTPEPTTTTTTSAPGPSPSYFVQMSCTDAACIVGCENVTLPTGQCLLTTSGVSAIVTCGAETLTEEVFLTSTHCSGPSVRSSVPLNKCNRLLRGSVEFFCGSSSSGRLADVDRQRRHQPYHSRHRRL
#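 Purified cruzain at 1.5 nM, pre-incubated 15 min with compound at room temperature in 100 mM sodium acetate pH 5.5, 5 mM DTT, 0.00005% Triton X-100. Reaction started with 2 uM Z-FR-AMC; AMC fluorescence increase over 60 s gives rate.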
# StopGo reporter – High Throughput Screening for Foot and Mouth Disease Virus Antivirals. Potency, µM (top dose mostly 57.9 µM), inactives show top-dose signal change, negative = less light. AID 1159524, 2015. human cells with a luciferase reporter of 2A StopGo recoding; control for the full effect not named in the record. hit rate 1.2% among 410,000; active = well fitted falling curve with a large enough effect; inconclusive = small, poorly fitted or top-dose-only effect; inactive = no such curve, though single readings can be large or run the other way; tested in HEK293T cells; also: % is scaled to controls: 0 for no effect and ±100 for the full control effect; nearly all actives have a fitted effect of over 45% in size; luciferase light after 4 h
# RE007 growth inh – qHTS Assay for Inhibitors of the HIV-1 protein Vpr | S. pombe RE007 Vpr strain, BacTiter-Glo ATP luminescence, 24 h; control for the full effect not named in the record | AID 651644, 2012 | Potency, µM (top dose mostly 92.2 µM), for the others: top-dose activity change, negative = less growth | hit rate 0.21% among 360,000; active = well fitted falling curve with a large enough effect; inconclusive = small, poorly fitted or top-dose-only effect; inactive = no such curve, though single readings can be large or run the other way;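 also: % is scaled to controls: 0 for no effect and ±100 for the full control effect; nearly all actives have a fitted effect of over 50% in size; the assay follows cell death caused by Vpr and the record does not say whether a fall means rescue or toxicity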
#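 Fission yeast RE007 carrying one integrated HIV-1 vpr copy, seeded at OD 0.01 in PMG+AL medium with 23 nL pinned compound. Grown 24 h at 30 degrees; viability read by BacTiter-Glo luminescence after 5 min.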
# SARS PLP yeast – qHTS of Yeast-based Assay for SARS-CoV PLP | hit rate 0.19% among 330,000 | S. cerevisiae expressing SARS-CoV PLpro, growth rescue; control for the full effect not named in the record | Potency, µM (titrated, usually from 32.9 µM), for inactives: at the highest dose activity, positive = growth rescue; also: 0% is about no effect; nearly all actives have a fitted effect of over 55% in size; growth read by luminescence after 48 h
# Cruzain Triton – qHTS Assay for Promiscuous and Specific Inhibitors of Cruzain (with detergent); purified cruzain, Z-FR-AMC fluorescence, 0.01% Triton; AID 1478, 2009; Potency, µM, for the others: max response, negative = inhibition, usual class: inhibitors; Cruzipain (Trypanosoma cruzi), P25779; hit rate 0.43% among 200,000; active = well fitted curve in the direction sought with a large enough effect; inconclusive = small, poorly fitted or top-dose-only effect, or another doubt; inactive = no such curve, though single readings can be large; an effect the other way counts as inactive or inconclusive;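 also: plate controls were neutral wells for no effect and buffer without enzyme for full effect; nearly all actives have a fitted effect of over 40% in size; top concentration of the series not given in the record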
#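 In this qHTS format, compounds are incubated with 1.5 nM cruzain for 15 min at room temperature before 2 uM Z-FR-AMC is added. Release of AMC is followed at 360/450 nm, and progress is taken as the 60 s fluorescence difference.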
# Lassa entry inh – qHTS for Inhibitors of binding or entry into cells for Lassa Virus; Lassa virus pseudotype entry inhibition, cell reporter; control for the full effect not named in the record; Potency, µM (highest dose often 37.9 µM), inactives show top-dose activity change, negative = inhibition, most hits filed as inhibitors; hit rate 1.2% among 300,000; active means well fitted inhibition curve with a large enough effect; inconclusive means small, poorly fitted or top-dose-only effect, or effect the other way; inactive means flat fitted curve, though single readings scatter; tested in HEK293 cells; also: % is scaled to controls: 0 for no effect and ±100 for the full control effect; nearly all actives have a fitted effect of over 50% in size; luciferase read-out
# NS1 function inh – qHTS Assay for Inhibitors of Influenza NS1 Protein Function; hit rate 0.4% among 270,000; AID 2326, 2010; S. cerevisiae slowed by influenza A NS1, growth recovery by OD600; Potency, µM (series often up to 46.1 µM), without a hit: at the top dose activity, positive = more growth; also: actives are rising curves; nearly all actives have a fitted effect of over 50% in size
#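 A cell-based growth assay was used: compounds that relieve NS1-induced slow growth of budding yeast raise OD600. Assay medium was yeast nitrogen base with ammonium sulphate and -URA supplement, pH 6.0, with 2% galactose.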
# The depositor's hits bear a star; ? = inconclusive; . = no result given; & = joins results of further samples; ! = not confirmed by another sample; [ ] = another dose, or the depositor's remark. Unless noted, calls follow the shape of the dose curve; as a rule, active means well fitted rising curve with a large enough effect; inconclusive means small, poorly fitted or top-dose-only effect; inactive means no such curve, though single readings can be large or run the other way. Potency is read from the fitted curve at half-maximal effect.
SMILES,MARV entry inh,Cruzain inh noDet,StopGo reporter,RE007 growth inh,SARS PLP yeast,Cruzain Triton,Lassa entry inh,NS1 function inh
Cc1ccc(-c2nn(-c3ccccc3)cc2C(=O)N2CCN(c3ccccn3)CC2)cc1,?,.,-8.7%,21.9%,-0.2%,.,-18.9%,.
CCOC(=O)C(C)Sc1nc2ccccc2c(=O)n1CC (stereo not drawn),11.9%,-6.0%,-11.1%,1.6%,-0.3%,2.5%,-7.6%,-4.1%
CCc1c(C)nc(SCC(=O)CC(=O)OC(C)C)c(C#N)c1C,0.5%,-0.6%,7.4%,-11.1%,1.7%,-7.4%,11.2%,1.4%
O=C(c1ccc2c(c1)N(Cc1cccc(F)c1)C(=O)c1ccccc1S2)N1CCOCC1,.,?,-1.4%,.,.,-5.1%,?,.
O=C(O)c1ccc(-n2cccn2)nc1,2.4%[46.1 µM],.,-8.0%,6.1%,3.8%,.,3.3%[46.1 µM],1.0%
C=CCn1c(-c2ccc(OC)c(OC)c2)n[nH]c1=S,-1.0%&-1.0%[46.1 µM],0.5%,-16.1%,-2.6%,-1.0%,-5.0%,-3.6%,5.3%
COc1ccc(CCN(C)CCc2ccc(OC)c(OC)c2)cc1OC,5.01µM*!,9.1%&-0.9%,-18.2%&-7.7%&-15.6%&-16.8%,-9.1%[18.4 µM],.,5.1%&-3.1%,-21.7%,-12.5%
COc1ccc(S(=O)(=O)c2c(C)c(NS(=O)(=O)c3ccccc3)cc(C)c2O)cc1,-5.1%&3.9%[46.1 µM],?,1.9%&-3.5%,-2.5%,-1.9%,-4.9%,12.0%,.
CC(NC(=O)C1=CC=CN2CCS(=O)(=O)N=C12)c1ccc(Cl)c(Cl)c1 (stereo not drawn),0.5%[46.1 µM],.,-5.0%,19.5%,3.4%,.,-10.2%[46.1 µM],.
CC(C)NC(=O)c1cc2ccccc2o1,?,0.1%,-7.3%,-1.6%,-16.0%,-1.1%,15.6%,0.9%
Cc1nn(C(C)C)c(C)c1CN1CCN(Cc2ccsc2)C(CCO)C1 (stereo not drawn),-4.0%[46.1 µM],.,-15.1%,-2.3%,0.0%,.,-4.3%,-0.9%
CCOC(=O)CSc1nc(C2CC2)nc2ccccc12,14.3%,2.1%,.,16.4%,0.1%,-3.9%,25.1%,-45.4%
Cc1[nH]c2ccccc2c1C(=O)CN1CCN(C2CCCCC2)CC1,.,0.6%,.,.,9.3%,3.8%,.,-3.7%
COC(=O)c1ccccc1NC(=O)c1cc2n(n1)C(C(F)F)CC(C(F)F)N2 (stereo not drawn),-17.3%,-14.8%,-18.4%,14.8%,-1.5%,6.0%,1.5%,7.9%
CCc1ccc(NC(=O)CC(c2cc(OC)c(OC)c(OC)c2)N2Cc3ccccc3C2=O)cc1 (stereo not drawn),.,?,68.4%[activator],.,.,-4.6%,-10.7%[46.1 µM],.
CC(=O)N1CCN(S(=O)(=O)c2ccc(S(=O)(=O)NC3CCCCC3)cc2)CC1,-3.1%[46.1 µM],.,31.2%[activator],-5.4%,1.1%,.,-9.4%,-18.8%
Cc1ccccc1NS(=O)(=O)c1cc(C(=O)NCc2ccco2)ccc1C,-6.8%,-2.8%,8.3%,-9.6%,-1.4%,-1.4%,1.64µM*,-13.2%
O=C(NCCc1ccccc1)c1nnc(Cc2cccc(F)c2)o1,.,-14.6%,5.0%,.,.,4.0%,2.3%[46.1 µM],.
Cc1cccn2c(=O)c3cc(C(=O)NC4CCCC4)c(=N)n(Cc4ccc(F)cc4)c3nc12,.,.,-11.8%,-6.0%,14.8%,.,.,-4.4%
CC1CC(C)CN(CCCNC(=O)c2ccc(CS(=O)(=O)Cc3cccc(Cl)c3)o2)C1 (stereo not drawn),.,.,-19.4%,1.9%,-1.3%,.,.,1.9%
Cc1cccc(/C(N)=N/OC(=O)Cc2ccccc2)c1,?,.,32.2%[activator],-3.0%,1.0%,.,?,-5.2%
O=[N+]([O-])c1ccc(-c2cn3nc(-c4ccccc4)c(-c4ccccc4)nc3n2)cc1,2.5%[46.1 µM],.,-10.6%,-5.9%,-0.1%,.,9.2%,3.1%
COc1ccccc1Cn1c(CNS(=O)(=O)c2ccc3c(c2)CCCC3)nc2cccnc21,.,-16.3%,45.0%[activator],.,.,-3.8%,?,.
COc1ccc(-n2c(=O)c3c(c4cc(OC)ccc4n3C)n(Cc3cccc(C)c3)c2=O)cc1,.,-5.3%,-9.8%,.,.,-1.2%,0.2%[46.1 µM],.
CCN(CCO)C(=S)Nc1cc(C(=O)OC)ccc1C(=O)OC,6.4%,-5.9%,1.1%,7.0%,12.9%,-1.0%,-1.5%,-6.5%

# A second format for three compounds above.
# The line under a structure holds: MARV entry inh | Cruzain inh noDet | StopGo reporter | RE007 growth inh | SARS PLP yeast | Cruzain Triton | Lassa entry inh | NS1 function inh
- O=C(NCCc1ccccc1)c1nnc(Cc2cccc(F)c2)o1
  . | -14.6% | 5.0% | . | . | 4.0% | 2.3%[46.1 µM] | .
- Cc1cccn2c(=O)c3cc(C(=O)NC4CCCC4)c(=N)n(Cc4ccc(F)cc4)c3nc12
  . | . | -11.8% | -6.0% | 14.8% | . | . | -4.4%
- CC1CC(C)CN(CCCNC(=O)c2ccc(CS(=O)(=O)Cc3cccc(Cl)c3)o2)C1 (stereo not drawn)
  . | . | -19.4% | 1.9% | -1.3% | . | . | 1.9%

# (next part)
SMILES,MARV entry inh,Cruzain inh noDet,StopGo reporter,RE007 growth inh,SARS PLP yeast,Cruzain Triton,Lassa entry inh,NS1 function inh
C/C(=N\S(=O)(=O)c1ccc(C)cc1)N1CCN(S(=O)(=O)c2ccccc2)C1C(C)C (stereo not drawn),?,?,-1.1%,4.2%,6.9%,1.8%,44.5%[14.3 µM],0.9%
O=C(COC(=O)c1ccccc1)Nc1cc(Cl)ccc1Oc1ccccc1,.,-6.2%,-25.5%,-0.7%,15.0%,-6.0%,.,5.9%
Cc1ccc(CCNC(=O)CN(c2cc(C)cc(C)c2)S(=O)(=O)c2c(C)noc2C)cc1,?,-2.7%,-12.5%&2.2%,-10.2%,1.6%,0.5%,1.7%[46.1 µM],7.2%
CSCCC(NS(=O)(=O)c1ccc2c(c1)OCCO2)C(=O)N(C)Cc1ccc(C)cc1 (stereo not drawn),-23.0%,.,-7.2%,0.3%,2.6%,.,-27.3%,-12.0%
Cc1cc(C(F)(F)F)n2nc(C(=O)O)c(Cl)c2n1,-2.2%,-0.1%,0.0%,9.6%,1.5%,3.9%,7.9%,-2.4%
CCOc1ccc(C(=O)Nc2cc(Cl)ccc2-n2cncn2)cc1OC,-1.5%,.,-23.8%,-11.7%,-6.3%,.,12.5%,.
S=C(NCc1ccco1)Nc1cccc(Cl)c1,-12.6%,2.8%,22.3%,-17.2%,-8.6%,0.9%,0.6%,-6.0%
COC(=O)COc1ccc2cc(-c3ccc(OC)cc3)c(=O)oc2c1,.,.,12.0%,-6.2%,1.0%,.,.,1.0%
COCCCNCCCCOc1ccc(OCc2ccccc2)cc1,.,.,54.5%[activator],-1.7%,-0.4%,.,.,-0.8%
N#Cc1sc2nc(-c3cccs3)cc(-c3ccccc3)c2c1N,-26.8%,15.8µM*,.,-6.8%,-2.0%,-0.8%,-21.9%,13.6%
Cc1ccc(S(=O)(=O)N(Cc2cccc(Cl)c2)C(=O)N2CCN(C)CC2)cc1,8.1%,.,-19.3%,-4.9%,.,.,-8.4%,.
CC(C)OCC(O)CN1CCN(C(c2ccccc2)c2ccccc2)CC1 (stereo not drawn),.,.,12.6%,-9.8%,0.4%,.,.,0.8%
COc1ccc(NC(=O)C2CCN(C(=O)NC3CCCCC3)CC2)c(OC)c1,-0.3%[46.1 µM],-10.2%,-4.0%,8.8%,12.4%,7.2%,0.9%,-10.7%
COc1ccc2c(c1)CC(=O)NC=C2,-3.6%[46.1 µM],.,-6.2%,19.0%,0.7%,.,15.2%,4.1%
COc1cc(NC(=O)CN(c2cc(C)cc(C)c2)S(=O)(=O)c2c(C)noc2C)cc(OC)c1,-23.0%&-23.0%,-10.4%,?,7.7%,2.3%,-5.4%,-10.1%,0.1%
Cc1cc(=O)[nH]c(SCC(=O)Nc2ccc(Br)cn2)n1,3.9%,-2.0%,18.5%,-11.3%,-1.8%,-6.5%,-0.8%,?
Cc1cccn2c(=O)c3cc(C(=O)NC(C)C)c(=N)n(Cc4ccncc4)c3nc12,-13.5%,?,-3.8%,?,-0.1%,31.6µM*,4.5%,6.5%
CCOC(=O)CN1CC23C=CC(O2)C(C(=O)Nc2ccc(C(C)=O)cc2)C3C1=O (stereo not drawn),-9.8%,5.9%,14.5%,-6.1%,7.4%,2.3%,.,-15.6%
Cn1c(=O)n(CC(N)=O)c(=O)c2c1nc(Br)n2Cc1ccccc1,.,.,-0.5%,-8.6%,-3.0%,.,.,24.1%
COc1cc(C(=O)N2CCc3ccccc32)ccc1OCc1c(C)noc1C,-24.7%[46.1 µM],.,-26.3%,2.3%,-0.3%,.,-4.9%,-30.7%
O=C(CSc1nc2[nH]ncc2c(=O)[nH]1)Nc1ccc(Cl)cc1,-2.2%[46.1 µM],.,0.0%,7.0%,-9.4%,.,-0.8%,.
O=[N+]([O-])c1ccc(Oc2ccc(S(=O)(=O)N3CCOCC3)cc2)cc1,?,.,-18.9%,4.0%,-2.6%,.,?,4.8%
COc1cccc2c1C1(O)C2CCCCCCCCCC12OCCCO2 (stereo not drawn),?,.,?,-12.6%,.,.,?,.
COC(=O)C1CCN(C(=O)c2cc(=O)[nH]c3ccccc23)CC1,-10.4%[46.1 µM],.,-5.4%,1.6%,1.2%,.,2.1%[46.1 µM],10.0%
COc1cccc(-c2ccc3ncnc(N(C)Cc4ccco4)c3c2)c1,.,-7.9%,?,.,-5.0%&-2.0%,-8.6%,.,.

# Compounds were not picked by outcome; 4.6% or so of the library scored in one or more.
